Bioassay records deposited in PubChem by National Center for Advancing Translational Sciences (NCATS).
hNpr1 antagonist: Natriuretic polypeptide receptor (hNpr1) antagonism - Primary qHTS; HEK293 hNpr1 GloSensor cGMP, ANP-stimulated luminescence; Potency, µM (series often up to 46.3 µM), for the others: at the top dose activity change, negative = inhibition, hits mostly inhibitors; Atrial natriuretic peptide receptor 1 (Homo sapiens), P16066; actives 1.6% (n = 76,000); active = well fitted inhibition curve with a large enough effect; inconclusive = small, poorly fitted or top-dose-only effect; inactive = no such curve, though single readings can be large or run the other way;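 note: nearly all actives have a fitted effect of over 60% in size; nearly all hits also lower the signal before the agonist is added; a reference antagonist and vehicle were the controls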
Target sequence (P16066 whole entry, looked up): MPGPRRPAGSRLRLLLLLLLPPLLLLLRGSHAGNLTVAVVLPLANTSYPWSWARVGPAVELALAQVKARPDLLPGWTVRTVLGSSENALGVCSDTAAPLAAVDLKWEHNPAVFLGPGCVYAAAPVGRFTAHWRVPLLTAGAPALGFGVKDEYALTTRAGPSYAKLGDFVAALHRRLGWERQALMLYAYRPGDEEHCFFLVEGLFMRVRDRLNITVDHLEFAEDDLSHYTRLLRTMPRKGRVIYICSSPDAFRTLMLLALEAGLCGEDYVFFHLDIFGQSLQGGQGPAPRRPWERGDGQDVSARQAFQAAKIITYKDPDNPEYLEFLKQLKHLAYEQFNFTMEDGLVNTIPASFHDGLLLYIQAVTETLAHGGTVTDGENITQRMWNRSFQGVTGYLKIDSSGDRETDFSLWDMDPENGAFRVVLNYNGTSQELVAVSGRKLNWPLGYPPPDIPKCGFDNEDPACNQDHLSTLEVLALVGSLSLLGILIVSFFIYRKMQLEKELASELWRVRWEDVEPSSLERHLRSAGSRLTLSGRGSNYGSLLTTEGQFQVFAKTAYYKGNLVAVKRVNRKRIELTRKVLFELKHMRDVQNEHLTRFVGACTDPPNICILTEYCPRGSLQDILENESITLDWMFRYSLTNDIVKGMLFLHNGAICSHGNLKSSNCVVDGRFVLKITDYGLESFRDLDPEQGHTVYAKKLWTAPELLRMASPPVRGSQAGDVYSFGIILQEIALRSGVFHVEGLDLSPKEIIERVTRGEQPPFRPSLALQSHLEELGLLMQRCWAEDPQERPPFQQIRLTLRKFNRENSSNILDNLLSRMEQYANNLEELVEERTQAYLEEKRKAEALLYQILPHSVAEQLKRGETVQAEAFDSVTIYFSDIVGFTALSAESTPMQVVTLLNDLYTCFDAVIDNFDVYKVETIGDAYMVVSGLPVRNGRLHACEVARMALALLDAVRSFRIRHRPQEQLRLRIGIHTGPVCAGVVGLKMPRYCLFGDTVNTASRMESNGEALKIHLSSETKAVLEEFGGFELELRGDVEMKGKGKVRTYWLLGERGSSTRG
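HEK293 cells stably expressing human Npr1 and cGMP GloSensor pGS-40F, loaded 2 h with 2% GloSensor reagent, given compound 30 min at room temperature. Luminescence read before and 20 min after 0.1 nM hNppA.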
The depositor's hits bear a star; ? = inconclusive; [ ] = remark or other dose. % is set by controls: 0 for no effect and ±100 for the full control effect; potency is the fitted concentration of half-maximal effect.

Preview:
SMILES | hNpr1 antagonist
O=C(NCc1ccco1)c1cccc2c1CCN2C(=O)Nc1ccc(F)cc1 | ?
COc1ccc(C(=O)N2CCc3cn(C)c4cccc(c34)C2)c(C)c1 | 3%
CSCCCN1CCC(Oc2ccc3ncccc3c2)(C(=O)O)CC1 | 4%
COc1cc(F)ccc1C(C(=O)O)N1CCC(Oc2cccc(F)c2)CC1 (stereo unspecified) | 7%
Cn1cncc1-c1nnc([C@H]2CCN(CC3CCCCC3)C2)o1 | -11%[70.6 µM]
Cc1cccc(N2CCN(C(=O)C3CCCN(S(C)(=O)=O)CCC(=O)NCC3)CC2)c1 (stereo unspecified) | 2%

The whole of this part, repeating the preview:
SMILES | hNpr1 antagonist
O=C(NCc1ccco1)c1cccc2c1CCN2C(=O)Nc1ccc(F)cc1 | ?
COc1ccc(C(=O)N2CCc3cn(C)c4cccc(c34)C2)c(C)c1 | 3%
CSCCCN1CCC(Oc2ccc3ncccc3c2)(C(=O)O)CC1 | 4%
COc1cc(F)ccc1C(C(=O)O)N1CCC(Oc2cccc(F)c2)CC1 (stereo unspecified) | 7%
Cn1cncc1-c1nnc([C@H]2CCN(CC3CCCCC3)C2)o1 | -11%[70.6 µM]
Cc1cccc(N2CCN(C(=O)C3CCCN(S(C)(=O)=O)CCC(=O)NCC3)CC2)c1 (stereo unspecified) | 2%
Cc1nn(-c2ccc(F)cc2)c(Oc2ccc(F)cc2F)c1CCC(=O)NC(C)C | -6%
CNC(=O)[C@@H]1CN(C(=O)c2cccc(Br)c2)C[C@H]1CO | -5%
COCC(=O)NC1CCC12CCN(C(=O)c1ocnc1C)CC2 (stereo unspecified) | -2%
COc1ccc(OCc2nc(C)c(CCO)c(=O)n2CC(=O)NC(C)CCc2ccccc2)cc1 (stereo unspecified) | -2%
Cc1noc(-c2cn(C3CCN(C(=O)c4ccc(F)c(F)c4)C3)nn2)n1 (stereo unspecified) | -1%
Cc1cnc(CC2CCN(C(=O)Nc3ccccc3F)C2)n1C(C)C (stereo unspecified) | -2%
N#Cc1cccc(N2CCC3(CCC(=O)N(CC4CCCO4)C3)CC2)n1 (stereo unspecified) | 0%
CN(C)C(=O)c1ccc(-c2ncc3c(n2)OCCN(Cc2ccccc2)C3=O)cc1 | 1%[70.6 µM]
C=CCN(C)C(=O)C[C@@H]1c2nc(NC(=O)COC)sc2C[C@@H]2[C@](C)(CO)[C@H](O)CC[C@]21C | 3%
O=C(Nc1cccc(-c2ccc(N3CCOCC3)nn2)c1)Nc1cccc(C(F)(F)F)c1 | 11µM*
CC(C)(C)CC(=O)Nc1ccc([C@H]2OCC(=O)N(Cc3ccc(F)cc3)[C@@H]2CO)cc1 | 5%[70.6 µM]
CCCNC(=O)c1ccc(S(=O)(=O)NCCN2CCNC2=O)cc1 | 1%
COc1ccccc1CCC(=O)N1CCC2(CC1)N=C(c1cccc(Br)c1)NO2 | -26%
O=C1c2cc(N3CCOCC3)nc(-c3cccc(CO)c3)c2CN1Cc1ccccc1 | -1%[70.6 µM]
CC1CCCN1C(=O)c1cn2cc(-c3cccc(Cl)c3)n(CC3CC3)c(=O)c2n1 (stereo unspecified) | -9%
O=C(CN1CCC2(CC1)NC(=O)CC2C(=O)O)NCc1ccco1 (stereo unspecified) | 5%
COc1ccc(N2Cc3c(NCC4CCCCC4)ncnc3N(C)CC2=O)cc1 | -1%
O=C1CCN(C(=O)C2CCC2)CCCC(C(=O)N2CCN(c3ccccn3)CC2)CCN1 (stereo unspecified) | -3%
Cc1nn(-c2cccc(Br)c2)c(C)c1[C@@H]1C=C[C@@H](NC(=O)CCCC(=O)O)C1 | 3%
Remaining list, next part
SMILES | hNpr1 antagonist
O=C(CCC1CCCC1)N1CCC(c2nc(C3CCOCC3)no2)C1 (stereo unspecified) | ?
O=C(c1cccc(Cl)c1)N1CCN(C2CCN(CCc3ccccc3)C2=O)CC1 (stereo unspecified) | -14%
COc1ccc(CN2CCC[C@H]2c2nc(-c3ccc(N(C)C)nc3)no2)c(O)c1 | 1%[70.6 µM]
COc1ccc(CN2CCCC(CO)(CC3CC3)C2)c(F)c1 (stereo unspecified) | 6%
O=C(c1cncc(Br)c1)N1CCC(OCC2CC2)C1 (stereo unspecified) | 4%
O=C(CN1CC(=O)NC1=O)NCc1noc(-c2ccc3c(c2)OCO3)n1 | 10%
COc1ccc(-c2noc([C@@H]3CCCN3C(=O)c3ccc(C)cc3)n2)cc1OC | 4%
Cn1cc(C(=O)N2CC(Oc3ccc(-c4nc(-c5ccccc5)no4)cc3)C2)cn1 | -1%
CC1=C(C(=O)N(C)C)C(c2ccc(Cl)cc2)N2C(CC(=O)NC(C)c3ccccc3)=CSC2=N1 (stereo unspecified) | -14%
COc1ccccc1CNC(=O)C1(c2ccc(NS(C)(=O)=O)cc2)CCCCC1 | -1%
CCN(CC)C(=O)CCc1c(C)nn(-c2ccccc2)c1Oc1ccccc1 | -23%
O=C1CCN(S(=O)(=O)c2ccccc2)CCCN(C(=O)NCc2ccccc2)CCN1 | 1%
CC(=O)N[C@H]1CN(C(=O)c2ccccc2C(F)(F)F)C[C@@H]1C1CC1 | 6%
COc1ccc(CN(C(=O)c2ccco2)c2ccc(CC(=O)NC(C)c3ccccc3)cc2)cc1 (stereo unspecified) | -26%
CC(C)CCN(C1CCOCC1)C1CCN(C(=O)c2ccncc2)CC1 | 1%
COCCOc1ccc2c(n1)CCN(C(=O)c1ccccn1)C2 | 5%
O=C(Nc1ccc2cn[nH]c2c1)c1ccc2c(c1)OCCN(c1ccccc1)C2 | ?
NC(=O)c1ccc(CC2CCN(C(=O)c3cnccn3)CC2)cc1 | 2%
COC(=O)c1cncc(N2CCCC3(CCC(=O)N(Cc4ccccc4)C3)C2)n1 (stereo unspecified) | 1%
CN1CCC(NC(=O)CCC[C@@H]2[C@H]3CCCN4CCC[C@@H](CN2C)[C@@H]34)CC1 | -1%
CN(C)C[C@H]1C[C@H](CO)CN(C(=O)Cc2cc3c(cc2Cl)OCCO3)C1 | 3%
O[C@H]1[C@H](NCc2ccc(Cl)cc2)[C@@H](c2ccc(N3CCOCC3)nc2)C[C@H]1O | -3%[70.6 µM]
CCCNC(=O)O[C@@H]1CC[C@]2(C)C(CC[C@@H](O)[C@H]2CC(=O)NCc2ccccc2)[C@]1(C)CO (stereo partly specified) | 1%
CCn1nccc1C(=O)N1C[C@@H](Oc2ccccc2)C[C@H]1C(=O)N1CCCC1 | -1%
COc1ccccc1C1C(C#N)=C(N)Oc2n[nH]c(C)c21 (stereo unspecified) | -1%

Reformatted as tab-separated lines: five of the compounds above.
Compound	hNpr1 antagonist
CC1=C(C(=O)N(C)C)C(c2ccc(Cl)cc2)N2C(CC(=O)NC(C)c3ccccc3)=CSC2=N1 (stereo unspecified)	-14%
COc1ccccc1CNC(=O)C1(c2ccc(NS(C)(=O)=O)cc2)CCCCC1	-1%
CCN(CC)C(=O)CCc1c(C)nn(-c2ccccc2)c1Oc1ccccc1	-23%
O=C1CCN(S(=O)(=O)c2ccccc2)CCCN(C(=O)NCc2ccccc2)CCN1	1%
CC(=O)N[C@H]1CN(C(=O)c2ccccc2C(F)(F)F)C[C@@H]1C1CC1	6%

New compounds follow
SMILES | hNpr1 antagonist
COC[C@@H]1CN(Cc2cccc(OC)n2)C[C@H]1C(=O)N(C)C | -11%
Cc1ccc(S(=O)(=O)N(C)CC2CCOC2)cc1C (stereo unspecified) | 3%
COc1cccc2c1OCC(CNC(=O)CN1CCCCCC1=O)C2 (stereo unspecified) | 5%
CC(C)COc1cc(=O)n2c(c1C(=O)N1CCC(N3CCCCC3)CC1)CCCCC2 | 4%
O=C(C1CCC1)N1CCN(C2CCN(Cc3cccnc3)C2=O)CC1 (stereo unspecified) | -12%
O=C1NCCN2CC3(CCN(C(=O)Nc4ccccc4)CC3)CC12 (stereo unspecified) | 4%
COc1ccccc1CCC(=O)Nc1cccc(-c2nnc3n2CCCC3)c1 | -1%
Cc1ccc(NC(=O)C2CC(=O)Nc3ncnn32)cc1C (stereo unspecified) | 8%
O=C(Cc1cccs1)N1CCC(c2noc(-c3cccnc3)n2)C1 (stereo unspecified) | -1%
O=C(Nc1ccccc1)N1CCC(N2C(=O)C(OCC3CC3)C23CCCCC3)CC1 (stereo unspecified) | 1%
CCCCc1nn(CC(=O)NCc2c(F)ccc(OC)c2F)c(=O)n1CC | 3%
CNC(=O)CN(C)C(=O)c1coc(COc2ccc3ccc(OC)cc3c2)n1 | 4%
Cc1nn(C)c2nc(NCCC(=O)N3CCCC3)sc12 | 4%
Cc1cc(CNC(=O)[C@@H]2CCC[C@@H](NCc3ccc(C(F)(F)F)cc3)CN(C)C(=O)C2)no1 | 0%
CCN1C(=O)C2CC3(CCN(S(=O)(=O)c4cccc(OC)c4)CC3)CN2C1=O (stereo unspecified) | 4%
COc1cc(NC(=O)CCC2CCN(C(=O)c3ccccc3)CC2)cc(OC)c1 | -8%
CN1CCC2(CCC1=O)CN(C(=O)CCOc1ccccc1)CCN2C (stereo unspecified) | -11%
C=CCNC(=O)N1CC[C@H]2CC(=O)N(Cc3ccc4c(c3)OCO4)CC[C@H]2C1 | 5%[70.6 µM]
CN(C)Cc1nnc(C2CCCN(C(=O)c3ccn4nnnc4c3)C2)n1C (stereo unspecified) | 5%
CC1=C[C@@H](CNC(=O)Cn2cnnn2)[C@H](C(C)C)C[C@H]1Cc1nc2ccccc2n1C | ?
Cc1ccc(C2Cn3nnc(-c4noc(Cc5ccc(F)cc5)n4)c3CO2)cc1 (stereo unspecified) | -5%
C1CNC(c2nc(CCOCC3CCOCC3)no2)C1 (stereo unspecified) | 1%
COCC(=O)N[C@@H]1C[C@H](COC)[C@@H](O)[C@H]1O | -1%[70.6 µM]
COc1ccc(CC(=O)N2CC[C@H]3CC(=O)N(CCc4cccc(OC)c4OC)CC[C@H]3C2)cc1 | -3%
Cc1nn(C)c(C)c1S(=O)(=O)N1CCN2C(=O)CN(C)C(=O)C2C1 (stereo unspecified) | 1%

Sorted by the number under hNpr1 antagonist (rising): three from the list above.
SMILES | hNpr1 antagonist
CNC(=O)CN(C)C(=O)c1coc(COc2ccc3ccc(OC)cc3c2)n1 | 4%
CN(C)Cc1nnc(C2CCCN(C(=O)c3ccn4nnnc4c3)C2)n1C (stereo unspecified) | 5%
Cc1ccc(NC(=O)C2CC(=O)Nc3ncnn32)cc1C (stereo unspecified) | 8%

The results go on:
SMILES | hNpr1 antagonist
CC(=O)N(C)CCc1noc(C2CN(Cc3c(F)cccc3Cl)C2)n1 | -1%
COc1ccc2nc([C@H]3CCN(CCCc4ccccc4)C3)[nH]c2c1 | 0%[70.6 µM]
O=C(Cc1ccc(Cl)cc1)NC1CCN(c2cc(-c3cccs3)[nH]n2)C1 (stereo unspecified) | -17%
CN1C(=O)CCC2(CNC(=O)CC3CCCC3)CCCC=C12 (stereo unspecified) | 5%
CCCS(=O)(=O)N[C@@H]1CN(C)C[C@H]1CN(C)C | 5%
COC1CCC12CCN(Cc1ccccc1C#N)CC2 (stereo unspecified) | 5%
CCN1CCN(c2ccc(C(=O)N3CCCC(c4ccccc4)CC3)cn2)CC1 (stereo unspecified) | 0%
CN(C)C[C@@H]1CN(Cc2ccccn2)C[C@H]1NC(=O)c1cc(F)cc(F)c1 | 2%
CC[C@H]1CN(C(=O)c2ccnc(Cl)c2)CC[C@H]1CC(=O)N1CCOCC1 | -1%[70.6 µM]
O=C(Nc1ccc(Cl)cc1)N1CCc2nc(C3CC3)nc(-c3ccc(Cl)cc3)c2C1 | 1%
O=C(CCc1conc1-c1cccc(F)c1)NCc1ccccc1Cl | -10%
CCNC(=O)N[C@H]1[C@H](O)[C@@H](N(C)CCN(C)C)[C@@H]2OC[C@H]1O2 | 9%[70.6 µM]
O=C(c1n[nH]c2ccccc12)N1CCCC(Cc2noc(-c3cnccn3)n2)C1 (stereo unspecified) | 12%
CC1(C)[C@H](Cc2cc(CCO)on2)C[C@@H]1NCc1ccccc1F | -5%[70.6 µM]
O=C(CCC1CCCC1)N1CC(c2nnc(-c3ccncc3)o2)C2(CCOCC2)C1 (stereo unspecified) | -9%
CCN1C(=O)CCN(C(=O)c2ccc3[nH]ccc3c2)CC12CCOCC2 | -3%
COc1cccc(NC(=O)Cn2c(-c3ccccc3)nc(C)c(CCO)c2=O)c1 | -13%
COc1cccc(CN2Cc3nc(-c4cccc(O)c4)ccc3OCC2=O)c1 | -22%[70.6 µM]
COCCC1(CO)CCCN(CC(N)=O)C1 (stereo unspecified) | 1%
CCc1ccc(NC(=O)CN2C(=O)NC3(CCOCC3)C2=O)cc1 | 10%
CC(C)CN1C(=O)COC[C@@H]1[C@H](O)c1ccc(NC(=O)CC(C)(C)C)cc1 | 1%[70.6 µM]
NC(=O)C1CCN(CC[C@H]2CN(C(=O)NC3CCCCC3)CC[C@H]2CC(=O)O)CC1 | 6%[70.6 µM]
CCc1cc(NCC(O)CN2CCCC2)ncn1 (stereo unspecified) | -2%
O=C(NCc1ccco1)C1c2ccccc2C(=O)N(Cc2ccccc2)C12CCCC2 (stereo unspecified) | -13%
C[S+](=O)([O-])N1CC2(Cc3ccccc31)CN(C(=O)c1ccc(Cl)nc1)C2 | 1%
Other results:
SMILES | hNpr1 antagonist
O=C1NCCOCCCN(C(=O)C2CCCC2)[C@H]2CCCC[C@@H]12 | -12%
CC(C)c1noc([C@@H]2Cc3nc[nH]c3CN2C(=O)CC(C)(C)CC(=O)O)n1 | 15%[70.6 µM]
CCc1nc2c(c(-c3ccc(O)cc3)n1)CCN(Cc1ccc(F)cc1)CC2 | -17%
Cc1cc(C)n(CC(=O)N[C@@H]2CN(S(C)(=O)=O)C[C@H]2CN(C)C)n1 | 2%
O=C1NC2(CCCN(Cc3ccc(F)cc3)C2)COc2ccccc21 (stereo unspecified) | 16%
COCC1CN(C)CC12CCN(Cc1sccc1C)CC2 (stereo unspecified) | -2%
CCCS(=O)(=O)NC[C@H]1O[C@H](Cc2cc(COC)on2)CC[C@@H]1O | 4%[70.6 µM]

These rows are one share of the data; rates above refer to the full screens.
